Assay outcomes (PubChem)
MLL AF4-AF9 inh – inhibitors of AF4 peptide binding to AF9, primary screen, biochemical, AlphaScreen, biotin-AF4 peptide, FLAG-AF9, single point; Protein AF-9 (Homo sapiens), P42568; inhibition, % at 10 µM; 350,000 compounds, 0.47% hits; AID 651704, 2012;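 active = every replicate reaching a set inhibition limit, whatever the replicate mean, cut at about 25% in these data; inconclusive = mean inhibition reaches that limit but some replicates miss it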;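 note: 0% = plate neutral control median and 100% = total signal loss; the record names both 10 and 1 µM as test concentration; the first replicate is given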
Target sequence (P42568 whole entry, looked up): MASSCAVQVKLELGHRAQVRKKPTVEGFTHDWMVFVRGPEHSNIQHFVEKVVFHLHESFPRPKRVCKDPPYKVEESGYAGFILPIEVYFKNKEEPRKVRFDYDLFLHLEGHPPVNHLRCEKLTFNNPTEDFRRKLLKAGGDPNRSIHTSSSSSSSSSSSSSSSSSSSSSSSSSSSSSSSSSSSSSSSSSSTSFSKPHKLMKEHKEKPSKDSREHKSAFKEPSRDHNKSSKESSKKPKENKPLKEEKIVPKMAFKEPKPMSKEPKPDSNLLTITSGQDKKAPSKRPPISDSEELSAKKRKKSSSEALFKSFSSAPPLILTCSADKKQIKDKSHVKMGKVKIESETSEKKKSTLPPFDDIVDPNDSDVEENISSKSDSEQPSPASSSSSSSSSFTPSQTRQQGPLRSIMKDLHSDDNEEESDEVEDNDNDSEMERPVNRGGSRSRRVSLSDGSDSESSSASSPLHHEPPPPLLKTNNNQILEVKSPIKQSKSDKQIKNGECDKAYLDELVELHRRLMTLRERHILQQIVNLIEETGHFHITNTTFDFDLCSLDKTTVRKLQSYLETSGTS
Ecoli growth – E. coli growth inhibition, primary screen, OD600; AID 1053175, 2014; 330,000 compounds, 0.21% hits; Escherichia coli growth, 23 h; active compounds read low; OD600 absorbance (no concentration beside the values);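 active = OD600 absorbance below the run mean of sample wells minus 3.6 SD, in any replicate, cut at about 0.56 in these data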;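 note: stock transfer was 300 nL into about 60 µL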
HNF4A DNA FP – change in binding of human HNF4A to DNA, primary screen, biochemical, fluorescence polarization, FITC-DNA; Hepatocyte nuclear factor 4-alpha (Homo sapiens), P41235; 1 h; activity change, % at 10 µM; 360,000 compounds, 0.3% hits; AID 1224865, 2016; in the data active = activity change above about 30%, passing the limit was not always enough;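 note: controls were the assay level and a saturating level of protein; the project sought stronger binding though the title names inhibitors; some compounds called inactive have numbers as strong as hits; positive values seem to mean higher polarization but the record does not say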
Target sequence (P41235 whole entry, looked up): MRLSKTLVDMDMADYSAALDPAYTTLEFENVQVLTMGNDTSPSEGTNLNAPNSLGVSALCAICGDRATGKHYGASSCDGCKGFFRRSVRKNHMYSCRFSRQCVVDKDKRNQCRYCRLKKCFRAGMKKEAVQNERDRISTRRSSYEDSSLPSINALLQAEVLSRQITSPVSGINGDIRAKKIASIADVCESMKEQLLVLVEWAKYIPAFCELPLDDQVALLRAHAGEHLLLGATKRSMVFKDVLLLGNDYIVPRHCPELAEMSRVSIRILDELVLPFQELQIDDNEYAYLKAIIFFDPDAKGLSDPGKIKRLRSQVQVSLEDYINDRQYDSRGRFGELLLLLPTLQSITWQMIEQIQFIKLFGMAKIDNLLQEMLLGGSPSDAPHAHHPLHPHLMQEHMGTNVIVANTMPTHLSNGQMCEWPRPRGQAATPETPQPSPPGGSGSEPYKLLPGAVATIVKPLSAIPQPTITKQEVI
RanGTP-Imp inh – inhibitors of RanGTP-importin-beta interaction, primary screen, biochemical, FRET, CFP-Ran, YFP-importin-beta, homogeneous; Ran GTPase (GTP-bound) - importin-beta complex; cell-free CFP-Ran/YFP-importin-beta FRET ratio; inhibition, % (no concentration beside the values); 300,000 compounds, 1.1% hits; AID 2216, 2009;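 active = most replicates above 15%; inconclusive = exactly half above 15%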;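 note: 0% = DMSO wells and 100% = Ran loaded with GDP instead of GTP; wells of about 40 µL received 100 nL stock; the first replicate is given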
FGF22 binding – binders of human FGF22 protein, primary screen, FGF22 synaptogenesis inhibitor project, biophysical, thermal shift, single point | recombinant FGF22 thermal shift, SYPRO orange fluorescence; percent of sucrose octasulfate shift, DMSO zero | calls only at 9.99 µM | Fibroblast growth factor 22 (Homo sapiens), Q9HCT0 | 340,000 compounds, 1.5% hits | AID 651658, 2012;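 active = melting point raised past a set limit in the mean and every replicate; inconclusive = no clear call; three in four hits are not shown here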
Vif TR-FRET – inhibitors of Vif binding to APOBEC3G peptide, primary screen, biochemical, TR-FRET, GST-Vif 1-94, biotin-A3G peptide, dose response retest (AID 1117319); TR-FRET GST-Vif / biotin-A3G peptide binding; higher % means a stronger effect; test concentration not given here; strong numbers were not always called active; inhibition, %, or IC50 in µM where a hit was titrated; 260,000 compounds, 0.57% hits;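 active = above the screen mean plus three standard deviations and confirmed in dose response; inconclusive = results disagree or hit not tested in dose response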;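 note: Vif residues 1-94 fused to GST binding biotinylated APOBEC3G peptide 110-148; 0% = full assay without inhibitor and 100% = GST in place of GST-Vif; retest series ran down from 100 µM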
UCH37 inh – inhibitors of human UCH37 deubiquitinase, primary screen, biochemical, Ub-AMC cleavage, fluorescence. Ubiquitin carboxyl-terminal hydrolase isozyme L5 (Homo sapiens), Q9Y5K5. purified proteasome/UCH37. inhibition, % (no concentration beside the values). 330,000 compounds, 0.33% hits. AID 588478, 2011;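 active = mean of two replicates above 20%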;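 note: 0% = compound-free wells with enzyme and 100% = wells lacking proteasome; stock transfer was 100 nL into about 20 µL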
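Material: human UCH37 enzyme supplied as purified proteasome complex / Amount: 0.15 nM proteasome as dispensed / Buffer or medium: pH 7.4 Tris-HCl (50 mM) with ovalbumin, ATP-MgCl2, DTT / Times: preincubation 30 min, reaction 25 min, room temperature / Technique: AMC fluorescence from Ub-AMC cleavage, excitation 355 nm, emission 460 nm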
The depositor's hits bear a star; i = inactive; u = inconclusive; x = no result given; + = active, no number.

SMILES	MLL AF4-AF9 inh	Ecoli growth	HNF4A DNA FP	RanGTP-Imp inh	FGF22 binding	Vif TR-FRET	UCH37 inh
Nc1ncnc2c1cnn2C1CCCCC1	1.5	0.64	6.6	u	i	72%	0.7
CCCNCC1COc2ccccc2O1 (stereo not drawn)	x	0.72	x	-0.3	x	8%	3.5
Cc1cccc(-n2c(SCC(=O)Nc3nnc(C)s3)nnc2-c2ccoc2C)c1	x	0.68	3.4	-1.7	x	-5%	0.5
COc1ccc(/C(C)=N/NC(=O)CNC(=O)c2cccnc2)cc1OC	1.8	x	0.2	3.6	i	2%	x
CCOC(=O)c1c(CN2CCCCC2)n(C)c2cc(Br)c(O)cc12	x	0.72	-1.6	u	x	-4%	1.9
Cc1ccc(C(=O)N2CCOCC2)cc1S(=O)(=O)N1CCOCC1	-1.0	0.7	-4.3	-1.5	i	-1%	5.7
CCOC(=O)c1cccc(S(=O)(=O)N2CCCC2)c1	-5.0	0.65	0.3	-1.6	i	-1%	2.5
CCn1c(=O)cc(SCC(=O)N2CCOCC2)c2ccccc21	x	0.67	-2.7	6.3	x	2%	0.1
Cc1ccc2nsnc2c1S(=O)(=O)NCc1ccc2c(c1)OCO2	x	0.72	-1.4	-2.6	x	13%	5.5
Nc1ccc2nc(NC(=O)C3CCCCC3)sc2c1	4.4	0.69	4.0	-2.8	i	-5%	1.6
O=c1[nH]nc(-c2n[nH]c(=O)o2)o1	-0.3	x	6.4	x	i	20%	x
CCC1C(=O)N=C(SCC(=O)Nc2ccccc2)NC1=O (stereo not drawn)	x	0.73	-3.3	-3.9	x	18%	-0.5
Cc1cc(C)n(-c2nc3ccccc3nc2N2CCC(C)CC2)n1	x	0.65	3.1	3.1	x	1%	-4.3
Cc1ccc2c(c1)[C@H]1[C@H](CO2)[C@H](c2ccccc2)[C@]2(C)C(=O)NCC(=O)N12	-4.2	x	1.0	x	i	x	2.2
O=S(=O)(c1ccccc1)N1N=C(c2ccc(Cl)cc2)CC1c1ccco1 (stereo not drawn)	0.6	0.72	3.5	x	i	4%	3.0
CN(C)S(=O)(=O)c1cc(C(=O)O)c(NC2CCCCC2)cc1Cl	x	0.7	-1.1	5.6	x	4%	3.1
COc1ccc(NC(=O)CN2CC(C)OC(C)C2)cc1Cl (stereo not drawn)	-1.3	0.69	0.0	3.7	x	x	2.9
COc1ccc(CN2CCN(C(=O)c3cccs3)CC2)cc1Br	x	0.75	2.3	-8.0	x	7%	4.5
Fc1cccc(Cc2c(-c3ccco3)nc3ccc(Br)cn23)c1	-2.6	x	-5.9	x	x	x	x
Cn1ccnc1C1CCCCN1Cc1nc(Cc2cccc(C(F)(F)F)c2)no1 (stereo not drawn)	-0.5	0.66	1.1	u	i	-3%	1.1
Cn1cncc1C#Cc1ccc2cc(CCO)oc(=O)c2c1	-0.2	0.81	-1.1	x	i	x	3.1
CC[C@@H]1[C@H]2CCCC(=O)N3CC[C@@H](C[C@@H]1Nc1ccccc1)[C@@H]23	7.5	x	1.9	-5.9	i	x	1.1
Cc1ccn2cc(-c3nonc3C)cc2c1	x	0.69	2.2	-2.3	x	22µM*	-4.7
Cc1ccc(-n2cc(-c3ccc([N+](=O)[O-])cc3)[nH]c2=S)c(C)c1	-2.2	0.69	2.2	-3.5	i	x	5.7
CCN(CC)S(=O)(=O)c1ccc(Cl)c(C(=O)OC2CC(C)OC2=O)c1 (stereo not drawn)	0.4	0.67	0.4	0.9	i	7%	2.9

Whole records, quoted from the list:
CCOC(=O)c1c(CN2CCCCC2)n(C)c2cc(Br)c(O)cc12 is listed as MLL AF4-AF9 inh = x; Ecoli growth = 0.72; HNF4A DNA FP = -1.6; RanGTP-Imp inh = u; FGF22 binding = x; Vif TR-FRET = -4%; UCH37 inh = 1.9
CCn1c(=O)cc(SCC(=O)N2CCOCC2)c2ccccc21 is listed as MLL AF4-AF9 inh = x; Ecoli growth = 0.67; HNF4A DNA FP = -2.7; RanGTP-Imp inh = 6.3; FGF22 binding = x; Vif TR-FRET = 2%; UCH37 inh = 0.1

Remaining list, next part
SMILES	MLL AF4-AF9 inh	Ecoli growth	HNF4A DNA FP	RanGTP-Imp inh	FGF22 binding	Vif TR-FRET	UCH37 inh
CC(=O)Nc1ccc(NC(=O)Nc2ccccc2)cc1	0.0	0.63	-3.7	0.8	+	4%	0.2
CC(C)NS(=O)(=O)c1ccc(CCC(=O)N2CCCC2)cc1	-1.3	0.69	-0.4	-1.0	i	5%	-0.7
CNC(=S)N/N=C/c1ccc(OCc2ccccc2)c(Br)c1	x	x	-0.1	-1.1	x	28%	x
CCOc1cc(C(=O)Nc2ccc(S(=O)(=O)NC3=NCCCCC3)cc2)cc(Br)c1OC	-8.7	0.67	1.7	-13	i	2%	2.5
COc1cc(C2C(C#N)=C(N)Oc3c2oc(CO)cc3=O)ccc1OC(C)C (stereo not drawn)	x	0.74	-1.8	5.1	x	7%	1.1
CC(=O)Nc1ccc(N2C(=O)c3ccc(S(=O)(=O)c4ccc(C(=O)O)cc4)cc3C2=O)cc1	-2.4	0.71	1.3	4.6	i	x	3.4
COC(=O)CSC1=C(C#N)C(c2ccc(C(C)C)cc2)CC(=O)N1 (stereo not drawn)	-2.3	0.71	-1.2	1.1	i	0%	8.5
C=CCN1C(=O)CSc2ccc(C(=O)NCCC3=CCCCC3)cc21	x	0.66	-1.2	-0.4	x	-3%	18
Cc1ccc(CNC(=O)CCS(=O)(=O)c2ccc3c(c2)oc(=O)n3C)cc1	0.6	0.72	0.1	6.5	i	x	4.2
NC(=O)c1ncn([C@@H]2O[C@H](CNC(=O)[C@@H](N)Cc3cccnc3)[C@@H](O)[C@H]2O)n1	-4.2	x	4.4	x	i	1%	x
COc1cccc(C(=O)c2c[nH]c(C(=O)NCc3ccco3)c2)c1	x	0.78	-0.9	6.7	x	11%	7.0
CC1(C)CC(=O)C2=C(C1)N(Cc1ccco1)C(=O)C2(NC(=O)c1ccc(Cl)cc1Cl)C(F)(F)F (stereo not drawn)	x	0.69	2.5	-0.1	x	3%	-1.5
Cc1cc(C)cc(OCC(=O)Nc2ccc(N3CCCC3)cc2)c1	x	0.71	11	-0.1	x	u	3.4
CCNC1=C(Cl)C(=O)c2ccccc2C1=O	12	0.63	-0.5	-3.3	x	3%	-0.9
CCn1c(O)c(C=Nc2ccccc2)sc1=O	-0.9	0.67	-0.1	0.9	i	x	-23
CN1CCN(/N=C/c2ccc(Br)cc2)CC1	4.6	x	-2.5	2.5	i	x	x
Cc1ccc(N(CC(O)CN2CCOCC2)S(=O)(=O)c2ccc([N+](=O)[O-])cc2)cc1 (stereo not drawn)	1.3	0.64	-0.3	2.4	i	-5%	2.3
Cc1ccc(-c2nnc(N)o2)cc1	x	0.64	-3.2	2.4	x	x	1.2
O=C(NC1CC1)C1=C[C@H](C2CCCCC2)C[C@H](OCCCCO)O1	4.3	x	1.9	u	i	-7%	2.5
Cc1nn(Cc2ccc(Cl)cc2Cl)c(C)c1NC(=O)c1nc2n(n1)C(C(F)F)CC(C)N2 (stereo not drawn)	x	0.78	-1.2	x	x	-4%	-2.9
COc1cc2nc(Nc3ccc(C)c(Cl)c3)nc(N)c2cc1OC	33*	0.59	2.0	-2.5	i	x	-29
CCc1nnc(NC(=O)CN2CCN(Cc3cccc(Cl)c3)CC2)s1	1.0	0.63	0.5	2.8	i	x	3.0
Cc1noc(C)c1C(=O)OCC(=O)NCCc1ccc(S(N)(=O)=O)cc1	-1.3	0.71	1.2	x	i	0%	3.8
Cc1sc2nc(SCC(=O)Nc3cccc(C(=O)O)c3)[nH]c(=O)c2c1C	-2.0	0.71	-1.7	x	i	-2%	6.1
O=C(Nc1cc(C(F)(F)F)ccc1-n1cnc2ccccc21)c1ccccc1	x	0.66	-0.6	2.3	x	x	2.4

Marked active in Vif TR-FRET, of those listed so far:
compound	MLL AF4-AF9 inh	RanGTP-Imp inh	Vif TR-FRET	UCH37 inh
Cc1ccn2cc(-c3nonc3C)cc2c1	x	-2.3	22µM*	-4.7

Next compounds:
SMILES	MLL AF4-AF9 inh	Ecoli growth	HNF4A DNA FP	RanGTP-Imp inh	FGF22 binding	Vif TR-FRET	UCH37 inh
O=C(NC1CC1)C1CCN(C2CCN(C(=O)c3ccc(C(F)(F)F)cc3)CC2)CC1	0.4	0.69	1.7	0.1	i	x	2.9
Cc1ccc(N=Cc2sccc2C)cc1C	x	0.69	-0.7	4.4	x	x	2.7
Cn1c(NN)nc2c1c(=O)n(Cc1ccccc1)c(=O)n2C	10	0.67	-6.0	-4.5	i	20%	7.2
Cc1ccc(Oc2ncccc2COC(=O)Nc2ccccc2C)cc1	-0.6	0.73	0.3	3.7	i	-6%	0.9
Cc1ccc2nc(N3CCN(C=O)CC3)nc(-c3ccccc3)c2c1	-47	0.65	0.1	54*	i	-4%	-170
S=C(Nc1ccc(Oc2ccccc2)cc1)N(CCCN1CCOCC1)Cc1ccccn1	4.8	0.73	-4.9	-2.2	i	-1%	4.1
CCc1ccc(NC2=NCC(c3ccccc3)S2)cc1 (stereo not drawn)	0.7	0.55	-4.7	u	x	7%	6.0
C#CCn1c(=O)cc(C)c2ccccc21	-1.0	0.67	5.5	-3.1	i	x	0.8
CCCCn1c(SCC(=O)N2CCOCC2)nc2ccccc2c1=O	9.3	0.65	0.8	0.3	i	x	1.0
COc1ccc(C(c2nnnn2C2CCCC2)N2CCC(C)CC2)cc1 (stereo not drawn)	x	0.71	1.6	2.7	x	4%	8.4
Cc1c(NC(=O)C2(c3ccccc3)CCCC2)c(=O)n(-c2ccccc2)n1C	x	0.79	-1.4	3.7	x	-1%	2.7
COc1ccc(-n2c(COc3cccc4ccccc34)nnc2SC(C)C(=O)O)cc1 (stereo not drawn)	0.7	0.65	-1.9	-1.9	i	10%	7.8
Cc1ccc(N2C(=O)C(CN3CCCC3)C2c2ccccc2)cc1 (stereo not drawn)	3.1	0.68	1.6	4.2	i	10%	1.6
C/C=C/c1cccc(-c2nc(C(=O)N3CCOCC3)cc3c2[C@H](CCO)N(C(=O)NC(C)C)C3)c1	-0.5	x	1.1	x	i	x	x
CCc1cc(=O)[nH]c(SCC(=O)NCC2CCCO2)n1 (stereo not drawn)	0.8	0.67	-0.3	-2.0	i	6%	2.5
O=C(O)C/C=C(\NC(=O)OCc1ccccc1)C(=O)OCc1ccccc1	-2.0	0.72	0.2	0.0	i	x	1.5
Cc1nnc(NC(=O)c2cc(S(=O)(=O)N(C)C)ccc2N2CCCC2)s1	0.6	0.65	2.0	x	i	0%	2.2
CCc1nc2ccc(C(=O)NCCc3ccccn3)cn2c1N(CC)Cc1cccc(Br)c1	4.1	x	3.0	x	i	x	x
Cc1cnc(C(=O)Nc2ccc3c(c2)CCC3)cn1	x	0.69	-0.6	2.9	x	3%	3.8
CN(c1ccc(C(=O)NCc2ccc3c(c2)OCO3)cc1)S(C)(=O)=O	x	0.69	-2.6	u	x	1%	3.8
CCOc1ccc(Nc2nc(-c3sc(N)nc3C)cs2)cc1	0.1	0.71	3.8	-0.7	i	x	0.7
CCOC(=O)c1cnc(SCc2ccc(C)cc2)nc1N	x	0.75	2.3	3.3	x	-9%	2.5

This is a subset. The share of hits here may be higher or lower than overall.
